Source: PubChem BioAssay (several laboratories)
GALR2 agonist – GALR2 (human) receptor agonism | O43603 | GALR2-expressing cells, agonist activation read-out | activation, %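 (tested at 5 µM)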 | hit rate 0.48% among 140,000 | AID 803;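 active = above mean plus 3 SD of all compounds, about 5% in these data, not always enough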;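 also: 0% = vehicle buffer wells and 100% = reference agonist at full effect; tested in CHO reporter cells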
PKD1 inh – PKD1 (human) kinase inhibition; Q15139; PKD1 kinase fluorescence polarization assay; inhibition, %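 (about 10 µM by stock and volumes)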; hit rate 0.056% among 200,000;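 active = inhibition of 50% or more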;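 also: controls were vehicle for no effect and a reference inhibitor for full effect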
Target sequence (Q15139 whole entry, looked up): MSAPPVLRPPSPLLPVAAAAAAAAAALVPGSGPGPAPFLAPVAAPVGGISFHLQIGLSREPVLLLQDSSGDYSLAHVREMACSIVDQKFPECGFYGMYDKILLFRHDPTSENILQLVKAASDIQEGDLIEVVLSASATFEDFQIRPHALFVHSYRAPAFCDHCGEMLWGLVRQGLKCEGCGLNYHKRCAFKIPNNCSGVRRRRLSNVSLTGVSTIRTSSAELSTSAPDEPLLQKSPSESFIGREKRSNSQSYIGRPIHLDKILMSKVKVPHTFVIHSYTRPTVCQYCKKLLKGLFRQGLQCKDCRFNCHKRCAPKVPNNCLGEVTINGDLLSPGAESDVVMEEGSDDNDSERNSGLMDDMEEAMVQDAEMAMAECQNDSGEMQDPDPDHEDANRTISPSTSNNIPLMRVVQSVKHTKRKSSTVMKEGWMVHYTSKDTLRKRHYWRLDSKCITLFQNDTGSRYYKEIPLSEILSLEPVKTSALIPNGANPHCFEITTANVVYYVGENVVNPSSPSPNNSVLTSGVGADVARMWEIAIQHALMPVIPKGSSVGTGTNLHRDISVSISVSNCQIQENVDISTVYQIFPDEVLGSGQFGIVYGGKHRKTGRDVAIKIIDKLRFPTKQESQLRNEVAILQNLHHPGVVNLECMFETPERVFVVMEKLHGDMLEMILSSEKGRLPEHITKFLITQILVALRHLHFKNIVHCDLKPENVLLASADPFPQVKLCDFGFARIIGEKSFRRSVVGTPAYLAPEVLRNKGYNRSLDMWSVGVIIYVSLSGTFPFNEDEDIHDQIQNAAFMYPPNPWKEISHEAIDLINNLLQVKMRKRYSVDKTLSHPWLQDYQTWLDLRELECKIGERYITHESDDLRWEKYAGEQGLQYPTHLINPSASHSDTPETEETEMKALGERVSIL
RGS16-Gao – RGS16-Galphao interaction regulator (human); O15492+P09471; bead-based flow cytometry RGS16-Galphao binding, fluorescence; actives lie on both sides; AID 1441; binding response (% of control), % at 10 µM; hit rate 0.38% among 220,000;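 active = below 25% or above 175%, edge rows of some plates excepted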;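 also: Galphao activated by GDP with aluminum fluoride before binding; 100% = wells without compound and 0% = beads without RGS; some results beyond the cut were filed as inactive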
HSV augment – increases HSV replication in cells; HSV replication augmentation in cells, fold increase; maximum fold increase; hit rate 0.005% among 220,000; AID 1956;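 active = peak rise of 1.5-fold or more in the series; tested in PC3 cells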;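 also: first round at 10 µM; read as green reporter fluorescence; hits show the peak of a series up to 25 µM; 1 = signal of infected wells without compound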
Insulin prom inh – TRM-6 insulin promoter activity inhibition | TRM-6 cells (human fetal islet line), insulin promoter-eGFP reporter, imaging; reporter expression induced with tamoxifen | inhibition, % at 2 µM | hit rate 0.9% among 130,000 | AID 1273;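 active = inhibition above the mean plus 3 SD, with well images judged a real hit on visual review, cut at about 60% in these data, passing the limit was not always enough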
Insulin prom inh cell count – further read-out of Insulin prom inh, marked with its call; normalized cell count, %; measured here: cell count, toxicity; reference of the scale not given here;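 cells exposed to compound for 48 h; stained nuclei by imaging scaled within each plate; lower means fewer cells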
HSV augment primary fold – recorded beside HSV augment, whose call it bears; fold increase; compound at 10 µM; measured here: primary screen fold increase 10 uM; tested in PC3 cells;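 GFP signal in the first replicate; 1 = infected wells without compound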
* = called active by the depositor; i = inactive; x = not tested or not shown; & = joins results of further samples.

Letters – A = GALR2 agonist; B = PKD1 inh; C = RGS16-Gao; D = HSV augment; E = HSV augment primary fold; F = Insulin prom inh; G = Insulin prom inh cell count
O=C(NNc1c2ccccc2nc2ccccc12)c1ccc(O)cc1O
  A: 0.4; B: 16.3; C: 99.4; D: x; E: x; F: x; G: x
NC1=C(Br)C(=O)c2ccccc2C1=O
  A: x; B: x; C: 99.5; D: i; E: 1.01; F: x; G: x
COc1ccc(OCC(O)CN(C2CCCCC2)C2CCCCC2)cc1 (centres undefined)
  A: -2.0; B: -4.8; C: 99.7; D: i; E: 0.75; F: -2.3; G: 113.3
Cc1cc(C)c2oc(-c3ccc(Cl)c(NC(=O)c4ccc(C#N)cc4F)c3)nc2c1
  A: -1.0; B: -6.9; C: 104.4; D: x; E: x; F: 28.6; G: 154.3
COc1cccc(CNn2c(-c3cccc(C)c3)nc3ccccc3c2=O)c1O
  A: -1.7; B: -4.9; C: 100.0; D: i; E: 1.06; F: x; G: x
CSCC[C@H](NC(=O)OC(C)(C)C)c1nnc(SCc2ccc(F)cc2)o1
  A: -0.1; B: -6.3; C: 39.4; D: i; E: 0.97; F: x; G: x
CN(C)c1ccnc(C(=O)O)c1
  A: x; B: 1.3; C: 107.8; D: i; E: 0.98; F: 0.0; G: 119.3
O=C(NC(=S)Nc1ccc(N2CCOCC2)cc1)c1cncc(Br)c1
  A: -0.9; B: 4.8; C: 49.1; D: i; E: 0.95; F: 66.7*; G: 92.5*
O=C(Nc1ccccc1)c1nsnc1C(=O)Nc1ccccc1
  A: x; B: -0.5; C: 101.4; D: i; E: 0.91; F: x; G: x
CCOc1ccccc1NC(=O)N1CCC(NC(=O)c2ccccc2C)CC1
  A: -2.3; B: -9.4; C: 100.8; D: i; E: 0.89; F: -22.7; G: 112.5
CC(/C=C/c1ccccc1)=N\NC(=O)Cn1cncn1
  A: x; B: x; C: 100.2; D: i; E: 1.04; F: x; G: x
O=C(COC(=O)CNC(=O)c1ccccc1)Nc1ccc(S(=O)(=O)N2CCOCC2)cc1
  A: x; B: -5.4; C: 103.5; D: i; E: 0.94; F: 25.0; G: 101.4
COc1ccc(CCNC(=O)CN(c2ccc(OC)cc2)S(C)(=O)=O)cc1
  A: x; B: -4.3; C: 90.0; D: i; E: 0.96; F: 20.0; G: 66.1
CS(=O)(=O)Nc1ccc(C(=O)N2CCN(c3ccccc3)CC2)cc1
  A: -1.6; B: -11.1; C: 104.4; D: i; E: 1.11; F: -35.3; G: 45.5
CCCCN(CC)CCCNC(=O)C1c2ccccc2C(=O)N(C)C1c1cn(C)c2ccccc12 (centres undefined)
  A: -3.7; B: -5.6; C: 101.2; D: i; E: 0.91; F: -53.9; G: 83.2
COc1ccc(-c2nnc(Nc3ccc(OC)c(C(=O)N4CCCCC4)c3)c3ccccc23)cc1
  A: -0.5; B: -12.1; C: 108.7; D: i; E: 0.86; F: x; G: x
COc1ccc(OC)c(N=CC2=C(O)CC(C)(C)CC2=O)c1
  A: 0.8; B: 2.8; C: 107.7; D: i; E: 1.13; F: 50.0; G: 110.3
O=C(NC1CCCC1)c1cc2nc(-c3ccccc3)cc(-c3ccccc3)n2n1
  A: x; B: x; C: 100.2; D: i; E: 0.94; F: x; G: x
CC12CCC(C/C1=N/NC(=O)Nc1ccccc1)C2(C)C (centres undefined)
  A: x; B: -1.2; C: 94.2; D: i; E: 0.97; F: 25.0; G: 140.5
Cc1cc(C)nc(N(C#N)Cc2ccc([N+](=O)[O-])cc2)n1
  A: x; B: 3.6; C: 108.2; D: i; E: 0.75; F: -76.2; G: 49.1
COc1ccccc1C(C)N(C)Cc1nc(COc2ccccc2)no1 (centres undefined)
  A: x; B: 8.4; C: 113.8; D: i; E: 1.11; F: x; G: x
Cc1cc(C(=O)NNc2ccc(Cl)cc2)no1
  A: x; B: x; C: 94.9; D: i; E: 0.95; F: x; G: x
Cc1c(OCC(=O)NC(Cc2c[nH]c3ccc(O)cc23)C(=O)O)ccc2c3c(c(=O)oc12)CCC3 (centres undefined)
  A: x; B: x; C: 97.1; D: i; E: 0.95; F: x; G: x
CCOC(=O)N1CCN(C(=O)/C(=C/c2ccc(Br)cc2)NC(=O)c2ccc(OC)cc2)CC1
  A: -1.7; B: 7.0; C: 106.3; D: i; E: 1.07; F: 21.4; G: 125.3
Cc1ccc(OCCNS(=O)(=O)c2ccc(N3CCCC3=O)cc2)cc1
  A: -2.1; B: -2.0; C: 190.8; D: i; E: 0.8; F: 16.7; G: 128.6
Cc1ccc(S(=O)(=O)N2CCCCC2)cc1C(=O)Nc1cccnc1
  A: x; B: x; C: 98.7; D: i; E: 1.01; F: x; G: x
COC(=O)c1sccc1NC(=O)CC1C(=O)NCCN1C(=O)c1ccccc1 (centres undefined)
  A: x; B: x; C: 99.8; D: i; E: 0.77; F: x; G: x
CC1(C)CN(c2ccccc2)N(C(=O)c2ccc(C#N)cc2)C1=O
  A: -1.2; B: 10.7; C: 112.4; D: x; E: x; F: -29.2; G: 47.4
COC(=O)c1ccccc1Nc1cc(C)nc2nc(C)nn12
  A: -0.9; B: -5.1; C: 100.2; D: x; E: x; F: -15.0; G: 142.6
CC(C)[C@H](NC(=O)c1ccccc1)C(=O)OCC(=O)Nc1ccc2c(c1)OCCO2
  A: -1.0; B: 8.0; C: 89.5; D: i; E: 0.97; F: x; G: x
NNC(=O)c1ncoc1-c1ccc(Cl)cc1
  A: x; B: x; C: 106.5; D: i; E: 0.88; F: x; G: x
COc1ccc(NS(=O)(=O)c2ccc(OC)c3ccccc23)cn1
  A: -0.9; B: 6.5; C: 86.5; D: x; E: x; F: -16.7; G: 102.2
Cc1ccc(C2(COC(=O)C(C)C)CO2)c(OC(=O)C(C)C)c1 (centres undefined)
  A: x; B: x; C: 108.6; D: i; E: 0.72; F: x; G: x
COc1cc(OC)c2c(c1)OC(c1ccc(OC)c(OC)c1)C(O)C2=O (centres undefined)
  A: -0.7; B: 6.5; C: 199.2; D: i; E: 0.8; F: x; G: x
O=C1CCCC/C1=N\Nc1ccc(OCc2ccccc2)cc1
  A: -0.7; B: -10.8; C: 93.0; D: i; E: 1.13; F: x; G: x
CCCCn1c(=O)c(F)cn(Cc2ccc(OC)c([N+](=O)[O-])c2)c1=O
  A: -0.4; B: -9.3; C: 98.9; D: i; E: 1.06; F: x; G: x
CC(C)CCNCC(=O)NC(c1ccccc1)c1ccccc1
  A: x; B: -5.7; C: 101.3; D: i; E: 0.91; F: -26.7; G: 112.9
O=C(COc1ccc(S(=O)(=O)N2CCOCC2)cc1)Nc1ccc2c(c1)OCCO2
  A: 0.2; B: -4.7; C: 100.2; D: i; E: 0.99; F: -7.7; G: 145.1
O=C(NCCc1c[nH]c2ccccc12)c1cnc2sccn2c1=O
  A: -4.1; B: -5.9; C: 99.8; D: i; E: 0.93; F: x; G: x
COc1ccc(C2c3c(-c4ccccc4O)n[nH]c3C(=O)N2CCc2ccc(OC)c(OC)c2)cc1 (centres undefined)
  A: -0.6; B: -2.5; C: 100.5; D: i; E: 0.99; F: x; G: x

Reprinted at random: two compounds from above.
Letters – A = GALR2 agonist; B = PKD1 inh; C = RGS16-Gao; D = HSV augment; E = HSV augment primary fold; F = Insulin prom inh; G = Insulin prom inh cell count
O=C(COc1ccc(S(=O)(=O)N2CCOCC2)cc1)Nc1ccc2c(c1)OCCO2
  A: 0.2; B: -4.7; C: 100.2; D: i; E: 0.99; F: -7.7; G: 145.1
Cc1ccc(C2(COC(=O)C(C)C)CO2)c(OC(=O)C(C)C)c1 (centres undefined)
  A: x; B: x; C: 108.6; D: i; E: 0.72; F: x; G: x

Sorted by the number under RGS16-Gao (smallest number first): some entries from above.
molecule | RGS16-Gao
COc1ccc(C2c3c(-c4ccccc4O)n[nH]c3C(=O)N2CCc2ccc(OC)c(OC)c2)cc1 (centres undefined) | 100.5
CC(C)CCNCC(=O)NC(c1ccccc1)c1ccccc1 | 101.3
COc1cc(OC)c2c(c1)OC(c1ccc(OC)c(OC)c1)C(O)C2=O (centres undefined) | 199.2

Carrying on.
Letters – A = GALR2 agonist; B = PKD1 inh; C = RGS16-Gao; D = HSV augment; E = HSV augment primary fold; F = Insulin prom inh; G = Insulin prom inh cell count
Cc1cccc(NC(=O)c2ccc(NC(C)c3ccccc3)c([N+](=O)[O-])c2)n1 (centres undefined)
  A: x; B: -4.7; C: 103.4; D: i; E: 1.01; F: x; G: x
O=c1c2ccccc2nc(CSc2ncnc3nc[nH]c23)n1-c1cccc(C(F)(F)F)c1
  A: -1.9; B: -5.5; C: 99.0; D: i; E: 0.91; F: 42.9; G: 80.3
O=C(COc1cccc(Oc2ccccc2)c1)Nc1ncccn1
  A: -1.5; B: -10.2; C: 112.2; D: i; E: 0.91; F: -25.0; G: 146.8
CCc1cccc(NC(=O)Cc2ccc(OC)c(OC)c2)c1
  A: -1.7; B: -8.6; C: 86.6; D: i; E: 0.91; F: -29.2; G: 159.2
COc1cc(C(C)=O)ccc1OCC(O)CNCC1(N2CCCCC2)CCCCC1 (centres undefined)
  A: -0.9; B: -5.2; C: 122.7; D: i; E: 1.1; F: 30.3; G: 91.8
O=C(O)C1C(C(=O)O)C1(c1ccccc1)c1ccccc1 (centres undefined)
  A: x; B: x; C: 98.3; D: i; E: 1.07; F: x; G: x
O=S(=O)(Nc1cccnc1)c1cccs1
  A: -0.6; B: -17.1; C: 100.2; D: i; E: 1.12; F: x; G: x
CCn1cc(C(=O)Nc2ccc(C)c([N+](=O)[O-])c2)cn1
  A: -1.2; B: -5.5; C: 102.5; D: i; E: 1.01; F: -57.1; G: 78.7
CC1CCc2nc(NC(=O)C3CC3)sc2C1 (centres undefined)
  A: -1.0; B: -9.2; C: 100.4; D: i; E: 1; F: 36.7; G: 139.2
CCn1c(O)c(N=NC(=O)CNC(=O)c2ccco2)c2ccccc21
  A: 0.7; B: -9.2; C: 59.9; D: i; E: 0.89; F: x; G: x
O=P(Cc1ccccn1)(c1ccccc1)c1ccccc1
  A: -2.2; B: -3.2; C: 103.7; D: i; E: 1; F: -37.9; G: 101.5
CCOC(=O)Cn1cc(C(=O)c2cccs2)c2ccccc21
  A: -1.3; B: -4.6; C: 99.1; D: i; E: 0.93; F: 12.5; G: 106.8
Fc1ccc(SCCc2ccncc2)cc1
  A: -3.1&-1.1; B: -6.0&-7.1; C: 103.1&91.9; D: i; E: 0.88&0.903; F: 0.0&-18.4; G: 139.7&71.9
COc1cc(/C=C(/C#N)c2ccc(F)cc2)ccc1OCc1ccc(C(=O)O)o1
  A: -0.3; B: -2.4; C: 105.3; D: i; E: 0.98; F: 5.3; G: 62.5
CC(=O)N1CCOCCOCCOCC1
  A: x; B: x; C: 101.7; D: i; E: 0.94; F: x; G: x
COc1ccc(S(=O)(=O)Nc2cc(C(=O)NCCCN3CCOCC3)ccc2N2CCOCC2)cc1
  A: x; B: -1.0; C: 105.1; D: i; E: 0.94; F: 42.9; G: 101.0
COc1ccc(S(=O)(=O)NC(Cc2cnc[nH]2)C(=O)O)cc1 (centres undefined)
  A: -0.3; B: -4.1; C: 106.7; D: i; E: 0.93; F: 3.7; G: 133.5
CNC(=O)COC(=O)COc1ccc2c(C)cc(=O)oc2c1
  A: x; B: 8.0; C: 102.9; D: i; E: 1; F: x; G: x
Cc1nc(C)c(CCNC(=O)c2ccccc2Br)s1
  A: -0.6; B: 7.7; C: 101.6; D: i; E: 0.97; F: x; G: x
Cc1nnsc1C(=O)NNS(=O)(=O)c1cc(C(F)(F)F)cc(C(F)(F)F)c1
  A: x; B: x; C: 101.0; D: i; E: 1.03; F: x; G: x
Cc1ccc(CNc2oc(COc3ccccc3Cl)nc2C#N)cc1
  A: -1.3; B: -4.8; C: 5.7; D: i; E: 1.02; F: 48.4; G: 102.7
CCOC(=O)c1c(NC2=NS(=O)(=O)c3ccccc32)sc2c1CCCCC2
  A: -0.4; B: 1.0; C: 109.2; D: i; E: 0.98; F: x; G: x
COC(=O)C(Cc1ccccc1)NC(=O)COc1ccc(C(C)(C)C)cc1 (centres undefined)
  A: -1.2; B: -10.2; C: 102.1; D: i; E: 0.953; F: 13.0; G: 144.2
Cc1ccc(C)c(S(=O)(=O)N2CCN(CC(=O)NC(=O)NCc3ccco3)CC2)c1
  A: x; B: -0.6; C: 97.6; D: i; E: 0.97; F: x; G: x
